# Bioassay records as filed in PubChem BioAssay.
# PKD1 kinase inh = inhibitors of human PKD1 kinase, biochemical, fluorescence polarization. PKD1 kinase fluorescence polarization assay. inhibition, %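 (about 10 µM by stock and volumes)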. 0.056% of 200,000 active. AID 797, 2007;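 active = inhibition of 50% or more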;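 note: controls were vehicle for no effect and a reference inhibitor for full effect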
# HSV replic up = enhancers of HSV replication in host cells, fold increase, host cell viability | HSV replication augmentation in cells | maximum fold increase | 0.005% of 220,000 active | AID 1956, 2009;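 active = peak rise of 1.5-fold or more in the series; inconclusive = self-fluorescent or not available for retest; tested in PC3 cells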;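 note: first round at 10 µM; read as green reporter fluorescence; hits show the peak of a series up to 25 µM; 1 = signal of infected wells without compound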
# Insulin prom inh = inhibitors of insulin promoter-driven GFP, primary screen, imaging, TRM-6 cells (human fetal islet line), eGFP reporter, cell count; 0.9% of 130,000 active; AID 1273, 2008; inhibition, % at 2 µM; reporter expression induced with tamoxifen;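 active = inhibition above the mean plus 3 SD, with well images judged a real hit on visual review, cut at about 60% in these data, passing the limit was not always enough; inconclusive = inhibition over the cutoff but images rejected on review; inactive = inhibition not above the cutoff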
# GALR2 ag = GALR2 receptor agonists, primary screen, cell-based; activation, %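 (tested at 5 µM)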; GALR2-expressing cells, agonist activation read-out; Galanin receptor type 2 (Homo sapiens), O43603; 0.48% of 140,000 active; AID 803, 2007;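 active = above mean plus 3 SD of all compounds, about 5% in these data, not always enough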;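 note: 0% = vehicle buffer wells and 100% = reference agonist at full effect; tested in CHO reporter cells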
# Target sequence (O43603 whole entry, looked up): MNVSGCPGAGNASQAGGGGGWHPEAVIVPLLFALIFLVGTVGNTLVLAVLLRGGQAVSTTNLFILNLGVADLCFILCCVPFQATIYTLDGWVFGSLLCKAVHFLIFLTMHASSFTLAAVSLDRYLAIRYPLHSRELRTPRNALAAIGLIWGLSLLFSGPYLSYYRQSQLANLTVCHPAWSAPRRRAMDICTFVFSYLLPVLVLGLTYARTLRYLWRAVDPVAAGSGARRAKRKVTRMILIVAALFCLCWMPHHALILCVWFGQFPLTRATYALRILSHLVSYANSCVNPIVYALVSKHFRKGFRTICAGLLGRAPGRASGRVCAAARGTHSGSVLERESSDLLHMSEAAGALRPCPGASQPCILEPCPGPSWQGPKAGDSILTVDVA
# RGS16-Gao = modulators of RGS16 binding to Galphao, primary screen, biochemical, human proteins, multiplexed bead flow cytometry; Regulator of G-protein signaling 16 (Homo sapiens) + Guanine nucleotide-binding protein …; bead-based flow cytometry RGS16-Galphao binding, fluorescence; actives lie on both sides; binding response (% of control), % at 10 µM; 0.38% of 220,000 active;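 active = below 25% or above 175%, edge rows of some plates excepted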;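 note: Galphao activated by GDP with aluminum fluoride before binding; 100% = wells without compound and 0% = beads without RGS; some results beyond the cut were filed as inactive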
# Target sequence (O15492 whole entry, looked up): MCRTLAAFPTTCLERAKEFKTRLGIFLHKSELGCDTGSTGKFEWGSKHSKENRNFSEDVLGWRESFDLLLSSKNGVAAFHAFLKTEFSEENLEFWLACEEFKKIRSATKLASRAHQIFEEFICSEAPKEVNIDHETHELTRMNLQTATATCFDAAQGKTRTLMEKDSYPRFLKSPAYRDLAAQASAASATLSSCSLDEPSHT
# Target sequence (P09471 whole entry, looked up): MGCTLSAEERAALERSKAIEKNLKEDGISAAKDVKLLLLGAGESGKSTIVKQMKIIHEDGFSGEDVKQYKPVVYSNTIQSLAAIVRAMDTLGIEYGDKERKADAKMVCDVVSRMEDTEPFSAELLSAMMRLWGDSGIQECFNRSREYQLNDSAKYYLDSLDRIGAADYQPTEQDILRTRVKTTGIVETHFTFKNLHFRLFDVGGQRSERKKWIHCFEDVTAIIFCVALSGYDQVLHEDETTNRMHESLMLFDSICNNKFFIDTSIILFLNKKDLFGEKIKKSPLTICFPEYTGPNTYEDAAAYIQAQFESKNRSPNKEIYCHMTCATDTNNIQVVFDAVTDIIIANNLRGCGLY
# Insulin prom inh cell count = also measured in Insulin prom inh; calls as there; normalized cell count, %; measured here: cell count, toxicity; reference of the scale not given here;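 cells exposed to compound for 48 h; stained nuclei by imaging scaled within each plate; lower means fewer cells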
# HSV replic up primary fold = recorded beside HSV replic up, whose call it bears; fold increase; compound at 10 µM; measured here: primary screen fold increase 10 uM; tested in PC3 cells;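 GFP signal in the first replicate; 1 = infected wells without compound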
# Active calls of the source: *; i = inactive; ? = inconclusive; nt = no result given.
SMILES,PKD1 kinase inh,HSV replic up,HSV replic up primary fold,Insulin prom inh,Insulin prom inh cell count,GALR2 ag,RGS16-Gao
Cc1cccc(C)c1NC(=O)CS(=O)CC(=O)NC1CCCc2ccccc21 (centres undefined),-12,i,1,-50,121,-0.7,103
CC(C)(C)c1csc(NC(=O)Cc2cccs2)n1,-5,i,1.1,nt,nt,nt,100
C=CCn1c(C(c2ccccc2)c2ccccc2)n[nH]c1=S,1,i,0.93,29,115,0.1,94
COc1ccc(CCNC(=O)CCn2c(=O)oc3ccccc32)cc1OC,-3,i,0.93,30,116,-2.2,101
Cc1ccc(Cl)cc1NC1=C/C(=N\S(=O)(=O)c2cccs2)c2ccccc2C1=O,-4,i,0.46,-12,97,1.5,99
COc1ccccc1C(=O)Nc1ccc(C(=O)O)cc1,-4,i,0.97,4,81,-4.1,102
CCOc1cc(/C=N\Nc2nc(Nc3ccccc3)nc(N3CCOCC3)n2)ccc1OC(=O)c1ccco1,29,i,0.69,nt,nt,-0.1,88
OCCCNc1nc(-c2ccccc2)nc2c1oc1ccccc12,nt,i,0.62,nt,nt,nt,110
CCn1ncc(CN2CCCC(C(=O)c3cccc(OC(C)C)c3)C2)c1C (centres undefined),-1,i,0.89,nt,nt,nt,95
C/C(CC(C)C)=N/Nc1ccc([N+](=O)[O-])cc1[N+](=O)[O-],nt,i,1.3,nt,nt,nt,102
CCCCNC(=O)c1onc(CSc2cccc(Cl)c2)c1C(=O)O,-3,i,1.2,49,130,-3.1,104
O=S(Cc1ccccc1)CC(O)(c1ccccc1)c1ccccc1 (centres undefined),-7,i,0.93,nt,nt,-2.0,73
O=C(Nc1ccc2c(c1)OCO2)c1c(Cl)nc2sccn12,4,i,0.81,nt,nt,1.1,104
CCCOc1ccc(-c2nc(C#N)c(NCCCn3ccnc3)o2)cc1,-5,i,0.8,-18,81,-2.0,99
C=CCNC(=O)CN1C(=O)C2C3c4ccccc4C(c4ccccc43)C2C1=O (centres undefined),2,i,0.89,nt,nt,nt,130
O=C(Nc1ccccc1)c1ccc2snnc2c1,6,i,1.1,33,142,nt,109
C(=N\n1cnnc1)/c1ccc2ncccc2c1,-13,i,0.9,54,82,-2.7,135
Cc1c(CN2CCCCC2)c(O)n(CCO)c(=O)c1C#N,3,i,1.1,nt,nt,nt,121
O=C(Cn1cnc2cc([N+](=O)[O-])ccc2c1=O)NC1CCS(=O)(=O)C1 (centres undefined),-1,i,0.92,nt,nt,nt,100
CC(=O)NC(CCS(C)(=O)=O)C(=O)Nc1cccc(C)c1C (centres undefined),-10,i,1,nt,nt,-0.7,111
CCC(=O)Nc1nc2cc(OC)ccc2s1,-8,i,0.82,-10,99,-1.9,104
O=[N+]([O-])c1ccc(COc2ccc(Br)cc2CN2CCOCC2)cc1,13,i,0.92,nt,nt,nt,109
CN1C2=NCCN2C(=O)c2cc(Cl)ccc21,nt,i,1,nt,nt,nt,105
CC(C)C(c1nnnn1CCc1ccccc1)N1CCC(C(N)=O)CC1 (centres undefined),2,i,0.9,31,109,nt,82
O=C(Nc1ccc(N2CCOCC2)nc1)c1ccc(F)cc1,-4,i,1.1,2,173,0.1,210
CC(C)(Oc1ccc(Cl)cc1)C(=O)Nc1ncccn1,-11,i,1,nt,nt,-0.6,104
O=C(CO/N=C/c1ccc2c(c1)OCO2)Nc1cccc(Br)c1,-2,i,1,7,67,-1.6,99
O=C(COc1ccc(Br)cc1)NCc1cn2ccccc2n1,nt,i,0.84,nt,nt,nt,99
Cn1c(C(=O)N2CCCC(C(=O)NCCCc3ccccc3)C2)cc2sccc21 (centres undefined),-2,i,0.85,10,81,-1.4,101
O=C(Nc1nc2cc3c(cc2s1)OCO3)C1=COCCO1,-3,i,0.77,32,55,-0.8,89
CC(=O)c1cccc(N=C2C(=O)Nc3ccccc32)c1,-4,i,0.86,50,132,0.5,100
COC(=O)c1ccccc1NC(=O)N1CCN(c2ccccc2)CC1,2,i,1.1,-11,90,nt,102
O=C(Nc1ccc2c(c1)OCO2)c1ccc(N2CCCC2)c([N+](=O)[O-])c1,6,i,1,nt,nt,-1.2,94
N#C/C(=C\C1=C(N2CCOCC2)C(=C\c2ccccc2)/CC1)C(=O)Nc1ccccc1F,-18,?,nt,i,109,-2.0,49
CCOc1ccccc1OCCOc1ccc(F)cc1,1,i,0.96,nt,nt,-2.9,113
O=C(/C=C/c1cccs1)NCc1ccccc1,-9,i,0.98,42,83,nt,99
CCc1ccccc1NC(=O)CN1C(=O)C2CCCN2c2ncc(Cl)cc21 (centres undefined),-2,i,0.93,0,68,-4.7,117
Cc1ccc(S(=O)(=O)N2CCN(c3cc4c(cc3[N+](=O)[O-])n(C)c(=O)n4C)CC2)cc1,-14,i,0.83,nt,nt,-0.9,101
O=S(=O)(c1ccc(F)cc1F)N1CCCN(c2ccc(C(F)(F)F)cn2)CC1,nt,i,0.95,nt,nt,nt,87
Cc1cc(N2CCCCC2)nc2ccccc12,1,i,1,33,112,nt,110
COc1cc2c(C(=O)N3CCN(c4cccc(Cl)c4)CC3)cn(CC(C)C)c(=O)c2cc1OC,-2,i,0.76,26,104,-1.5,97
COc1ccc(-c2cc(C(=O)NC3CCCC3)no2)cc1OC,3,i,0.95,nt,nt,-0.4,100
O=c1[nH]c(CSc2ncnc3sccc23)nc2ccccc12,nt,i,0.9,nt,nt,nt,99
O=C(O)c1c(-c2ccccc2)c2oc3ccccc3c2[nH]c1=O,-16,i,0.68,nt,nt,-0.4,109
CCCCCOc1ccc(NC(=O)C(=O)NCCCn2ccnc2)cc1,1,i,1.2,1,122,-0.7,102
CC(NC(=O)Cn1cc2c(n1)CCCCC2)c1ccccc1 (centres undefined),-2,i,0.83,nt,nt,-0.8,103
Cc1ccc(/C=C/C(=O)Nc2cc(C)on2)cc1,2,i,0.93,nt,nt,0.1,107
CCOc1ccccc1C(=O)NCCCCCC(=O)O,2,i,0.82,-64,131,0.9,93
O=C(N/N=C/c1cc(Br)ccc1O)C(c1ccncc1)N1CCOCC1 (centres undefined),-7,i,0.87,60,54,-1.6,92
O=C(NNC(=S)Nc1ccc(OC(F)F)cc1)c1cc2c(s1)CCCC2,1,i,0.97,nt,nt,-1.1,100
CCCC1=C(C(=O)OCC)C(c2ccncc2)n2ncnc2N1 (centres undefined),-2,i,0.9,21,93,-0.5,104
C(#Cc1ccccc1)C[N+]1(CC#Cc2cccc3ccccc23)CCCC1,-3,i,0.69,-19,87,-1.2,113
O=C(Nc1cccc(Cl)c1)Nc1ccccc1-n1ccnc1,8,i,1.1,nt,nt,nt,93
O=C(CSc1nc2[nH]ncc2c(=O)n1-c1ccccc1)N1CCCc2ccccc21,-3,i,1,nt,nt,-1.2,122
CCOC(=O)c1sc2nc(-c3ccccc3)ccc2c1N,-1,i,0.96,27,149,3.4,103
O=S(=O)(c1ccc(Sc2nnc3ccccn23)nc1)N1CCOCC1,-1,i,0.95,nt,nt,-2.3,106
O=C(NCc1ccco1)c1ccc(F)c(S(=O)(=O)N2CCCCC2)c1,-4,i,0.95,50,157,nt,99
Cc1cc(=O)[nH]c(SCC(=O)Nc2ccccc2[N+](=O)[O-])n1,nt,i,1.1,nt,nt,nt,105
O=C(O)c1cc(N2N=C(C(F)(F)F)/C(=C/C=C/c3ccco3)C2=O)ccc1Cl,-2,i,0.97,40,118,nt,103
CCOc1ccc(C(=O)NCC(C)CN(C)C)cc1OCC (centres undefined),-8,i,0.92,-40,103,-1.5,104

# Single records, as listed above. Order of values: PKD1 kinase inh	HSV replic up	HSV replic up primary fold	Insulin prom inh	Insulin prom inh cell count	GALR2 ag	RGS16-Gao
# O=C(Nc1cccc(Cl)c1)Nc1ccccc1-n1ccnc1 as listed: 8	i	1.1	nt	nt	nt	93
# C(#Cc1ccccc1)C[N+]1(CC#Cc2cccc3ccccc23)CCCC1 as listed: -3	i	0.69	-19	87	-1.2	113

# (further entries)
SMILES,PKD1 kinase inh,HSV replic up,HSV replic up primary fold,Insulin prom inh,Insulin prom inh cell count,GALR2 ag,RGS16-Gao
COC(=O)CN1C(C)=Nc2ccc(C)cc2C1c1ccccc1 (centres undefined),-1,i,0.95,nt,nt,nt,111
O=C(N/N=C/c1cccnc1)c1cccc(N2CCCC2=O)c1,nt,i,1.1,nt,nt,nt,102
Cc1cccc(C(=O)NC(C)C(c2cccs2)N2CCOCC2)c1 (centres undefined),nt,i,0.98,nt,nt,nt,97
O=C(Nc1nnc(C2=COCCO2)o1)c1ccc(S(=O)(=O)N2CCCCC2)cc1,-8,i,1.1,nt,nt,nt,101
O=C(NC1=NCCS1)NC12CC3CC(CC(C3)C1)C2,-7,i,1.1,3,161,-0.4,109
O=C(NC(=S)Nc1ccc2ncccc2c1)c1ccccc1,-2,i,0.81,nt,nt,nt,96
Cc1cnc(C(=O)Nc2cccc3cccnc23)cn1,-2,nt,nt,nt,nt,-1.7,103
CCn1c(C)cc(/C=C2/SC(=S)N(CC(=O)O)C2=O)c1C,-6,?,nt,nt,nt,nt,102
O=C(CSc1nnc(COc2ccc(Cl)cc2)o1)N1CCOCC1,-4,i,1.1,nt,nt,nt,100
Cc1c(-c2csc(N)n2)cnn1C,8,i,0.92,nt,nt,nt,99
CC(=O)NCC1CCCN(Cc2cn(-c3ccccc3)nc2-c2ccc3c(c2)OCO3)C1 (centres undefined),0,i,0.9,nt,nt,nt,101
O=C(NO)c1ccc(OC(F)F)cc1,10,nt,nt,9,108,-1.4,105
COc1cc(OC)c(C2N(c3cc(C)on3)C(=O)C3CCCN32)cc1OC (centres undefined),-8,i,0.78,nt,nt,-2.1,101
Cc1ccc(NC(=O)c2ccc(-n3cncn3)c([N+](=O)[O-])c2)cc1,3,i,0.81,19,113,-2.8,97
Cc1ccc(CNC(=O)N2CCN(C)CC2)cc1,-2,i,0.97,nt,nt,-0.5,93
CCCCNC(=O)c1cc2c(-c3ccc(Cl)cc3)nn(C)c2s1,-9,i,0.88,nt,nt,-0.7,42
CCOc1ccc(N2C(=O)CC(NCCc3c[nH]c4ccccc34)C2=O)cc1 (centres undefined),5,i,1,0,68,nt,96
S=c1[nH]nc(-c2cc(-c3ccccc3)n[nH]2)n1/N=C/C(Br)=C/c1ccccc1,nt,i,0.71,nt,nt,nt,110
Cc1ccc(OCC(=O)OC2CCS(=O)(=O)C2)cc1 (centres undefined),-19,i,0.91,nt,nt,-3.3,96
CCCCC(=O)NNC(=O)CC(=O)Nc1ccccc1C(=O)O,nt,i,1.1,nt,nt,nt,91
Cc1ccc(S(=O)(=O)N/N=C/c2cccs2)cc1,-3,i,0.91,-9,58,nt,102
O=C(CCl)c1ccc2c(c1)CCN2C(=O)C1CCCCC1,-7,nt,nt,15,92,nt,102
CCN(CC)S(=O)(=O)c1ccc2c(c1)c(C(=O)O)cn2C,-1,i,1.1,nt,nt,-1.5,93
CC(=O)Nc1ccc(S(=O)(=O)Nc2nc3ccccc3nc2N2CCc3ccccc3C2)cc1,-11,i,0.84,22,105,0.1,103
O=C(Nc1ccc(Cl)c([N+](=O)[O-])c1)C(NCCCO)c1ccccc1 (centres undefined),-11,i,0.97,4,111,-0.9,104
C=CCOc1ccc(/C(O)=C2\C(=O)C(=O)N(CCCOC)C2c2ccc(O)c(OC)c2)cc1 (centres undefined),5,i,0.94,-42,112,-1.6,108
N#CCCn1nnc(-c2ccccc2F)n1,1,i,0.8,-219,107,-2.8,100
CC(Sc1nc(-c2ccccc2)cc(C(F)(F)F)n1)C(=O)N1CCC(C(N)=O)CC1 (centres undefined),-10,i,0.92,-329,34,-0.7,104
CCOC(=O)C1=C(O)C(=O)N(C2CCCCC2)C1,nt,i,1.1,nt,nt,nt,101
Cc1c(C(=O)NCC2CCCO2)oc2ccc(S(=O)(=O)N3CC(C)CC(C)C3)cc12 (centres undefined),-13,i,1,nt,nt,-2.1,104

# Molecules from the list above with a CF3 group (3):
SMILES,PKD1 kinase inh,HSV replic up,HSV replic up primary fold,Insulin prom inh,Insulin prom inh cell count,GALR2 ag,RGS16-Gao
O=S(=O)(c1ccc(F)cc1F)N1CCCN(c2ccc(C(F)(F)F)cn2)CC1,nt,i,0.95,nt,nt,nt,87
O=C(O)c1cc(N2N=C(C(F)(F)F)/C(=C/C=C/c3ccco3)C2=O)ccc1Cl,-2,i,0.97,40,118,nt,103
CC(Sc1nc(-c2ccccc2)cc(C(F)(F)F)n1)C(=O)N1CCC(C(N)=O)CC1 (centres undefined),-10,i,0.92,-329,34,-0.7,104
